Screens as filed in PubChem BioAssay.
HPGD block: qHTS Assay for Inhibitors of HPGD (15-Hydroxyprostaglandin Dehydrogenase) | Potency, µM, for the others: top-dose activity change, negative = inhibition, hits mostly inhibitors | hit rate 4.3% among 150,000 | purified HPGD, NADH fluorescence kinetic, PGE2 substrate | AID 894, 2007; active = well fitted inhibition curve with a large enough effect (not every such curve was filed as active); inconclusive = small, poorly fitted or top-dose-only effect, or another doubt; inactive = no such curve, though single readings can be large or run the other way;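 further: top concentration of the series not given in the record; plate controls included wells without enzyme; inactives centre near -10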
Target sequence (P15428 whole entry, looked up): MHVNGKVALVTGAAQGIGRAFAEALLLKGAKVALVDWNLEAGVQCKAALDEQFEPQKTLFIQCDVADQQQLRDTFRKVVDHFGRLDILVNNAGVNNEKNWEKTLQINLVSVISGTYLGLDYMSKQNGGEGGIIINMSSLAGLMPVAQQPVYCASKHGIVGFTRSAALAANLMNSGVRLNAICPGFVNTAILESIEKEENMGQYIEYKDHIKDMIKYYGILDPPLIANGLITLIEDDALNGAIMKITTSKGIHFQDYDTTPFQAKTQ
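NADH formation kinetics: reaction with 30 uM PGE2 and 1 mM NAD+ (final), 20 nM enzyme, Tris-HCl pH 8 with Tween 20, after 15 min compound preincubation at room temperature. Fluorescence change, last versus first of five reads.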
* = called active by the depositor; u = inconclusive; & = joins results of further samples. On the % scale 0 is the no-effect control and ±100 the full control effect; potency means the concentration at half of the fitted maximal effect. An excerpt; the hit share may differ from the screen's.

SMILES | HPGD block
Cc1nn(C)cc1-c1n[nH]c(=S)n1-c1ccc(Cl)cc1 | -24%
CC1Cc2ccccc2N1C(=S)Nc1ccc(S(N)(=O)=O)cc1 (configuration not stated) | -4%
Cc1ccc2[nH]c(-c3ccccc3)cc(=O)c2c1 | u
COc1ccc(NC(=O)CSc2nc3c(c(=O)n2-c2ccc(F)cc2)SCC3)c(OC)c1 | -9%
CCc1ccc(-n2c(Cn3nc(C(F)(F)F)cc3C)n[nH]c2=S)cc1 | u
Cc1cc(C(=O)CSc2nnc(-c3cccc(F)c3)n2N)c(C)n1Cc1ccc2c(c1)OCO2 | u
CCON1C(=O)CN(C(=O)OC)C1c1ccc(Cl)cc1Cl (configuration not stated) | -8%
COC(=O)c1ccccc1NC(=O)c1ccccc1N(C)S(=O)(=O)c1ccccc1 | -1%
CC1CCN(c2c(NCC3CCC(C(=O)N4CCCCC4)CC3)c(=O)c2=O)CC1 (configuration not stated) | 0.5µM*
CN(C)C(=O)c1ccc2c(c1[N+](=O)[O-])C(=O)c1ccccc1C2=O | -16%
N/C(=N\OC(=O)Oc1ccccc1)c1cccc([N+](=O)[O-])c1 | -5%
COc1ccc(-c2cc(-c3ccccc3)n3ncnc3n2)cc1 | u
Cc1nc2sc(C(c3ccco3)N3CCN(c4ccccc4)CC3)c(O)n2n1 (configuration not stated) | -21%
C/C(=N/Oc1nc(C)cc(C)n1)c1ccccc1 | -3%
CCOc1ccc(Br)cc1S(=O)(=O)Nc1ccc(N2CCOCC2)cc1 | 1%
C=C(C)Cn1c(CCNC(=O)C(C)(C)C)nc2ccccc21 | -5%
COc1ccc2c(c1)C(=NO)c1cc(OC)ccc1-2 | -24%
COc1cccc(CC2CC(=O)N(CCc3ccc4c(c3)OCO4)C2=O)c1 (configuration not stated) | -12%
Cc1cc(/C=N/O)c(C)n1-c1ccccc1 | -27%
O=C(Nc1nccs1)c1ccccc1N=Cc1ccccc1 | u
O=C(CCC(=O)NC1CCCCCC1)Nc1nnc(C(F)(F)F)s1 | -10%
O=C(Nc1ccn(-c2ccccc2)n1)c1ccccc1Br | -30%
COc1cccc(N(C(=O)C2COc3ccccc3O2)C(C(=O)NC2CCCCC2)c2ccc(O)cc2)c1 (configuration not stated) | -10%
O=C(NC(=Nc1nc2ccccc2o1)NC(=O)c1ccccc1)c1ccccc1 | -11%

Next section (2 carried over from the part before).
SMILES | HPGD block
COc1cccc(N(C(=O)C2COc3ccccc3O2)C(C(=O)NC2CCCCC2)c2ccc(O)cc2)c1 (configuration not stated) | -10%
O=C(NC(=Nc1nc2ccccc2o1)NC(=O)c1ccccc1)c1ccccc1 | -11%
CCn1c(=O)n(CC(=O)NCc2ccccc2OC)c(=O)c2ccccc21 | -3%
C/C(=N\Nc1ccc([N+](=O)[O-])cc1)c1ccco1 | -5%
CCc1ccc2nc(NC(=O)CSCc3c(C)noc3C)sc2c1 | -13%
O=C(C(=O)N1CCCc2ccccc21)N1CCCc2ccccc21 | 0%
O=C(CN1C(=O)NC2(CCCCCCC2)C1=O)N1CCc2ccccc2C1 | 6%
CC(=O)NNc1cc(=O)c2c(=O)n(C)c(=O)n(C)c2[nH]1 | 1%
Cc1cc(Br)cc2c(C(=O)Nc3c(C)n(C)n(-c4ccccc4)c3=O)cc(-c3cccs3)nc12 | -11%
S=C1NC(c2ccccc2)=NCN1c1ccc(Cl)cc1 | -4%
NS(=O)(=O)c1cccc(NC(=O)COC(=O)/C(=C/c2cccs2)c2cccs2)c1 | -28%
COc1cc(NS(=O)(=O)c2ccc(NC(C)=O)cc2)cc(OC)c1 | -6%
Cc1ccn2cc(CSc3ccccc3)nc2c1 | -12%
COc1cc(C(=O)NCCC(=O)NCCc2ccc(Cl)cc2)cc(OC)c1OC | 3%
CC1CCN(C(=O)c2scc3c2OCCO3)CC1 | 16µM*
CCC1=NC(c2ccccc2OC)N(O)C1(C)C (configuration not stated) | -14%
COc1ccccc1NC(=O)CSc1c2c(nc3ccccc13)CCC2 | -26%
CCN1CCCC1Cn1c(-c2ccccc2)nc2c(N(CCOC)CCOC)nc(C)nc21 (configuration not stated) | -25%
COCc1cc(C)nc2sc(C(=O)N3CCCC3)c(N)c12 | 2.5µM*
COc1ccc(C(=O)NCc2nnc(SC)n2C2CCCCC2)cc1 | -3%
COc1ccc(NC(=O)C(C)NS(=O)(=O)c2ccc(NC(C)=O)cc2)cc1Cl (configuration not stated) | -3%
O=C1/C(=N/n2cnnc2)c2ccccc2N1Cc1ccccc1 | -19%
COc1ccc(-c2nn(-c3ccccc3)cc2/C=N/NC(=S)NC(C)C)cc1OC | -20%
Cn1c(=O)n(C)c2cc(S(=O)(=O)N3CCCc4ccccc43)ccc21 | -15%
COC(=O)C1=C(C)n2nnnc2NC1c1cc2ccccc2o1 (configuration not stated) | -14%
O=C(OCN1C(=O)c2ccccc2C1=O)/C(=C\c1ccco1)NC(=O)c1ccccc1 | -11%
O=C(c1ccco1)N1CCN(C(=O)c2cc3c(=O)oc4ccccc4c3s2)CC1 | -16%
O=C(Cc1ccc2c(c1)CCCC2)Nc1ccccc1Br | 25µM*
O=C(COC(=O)C12CC3CC(CC(C3)C1)C2)Nc1ccc([N+](=O)[O-])cc1Br | -17%
CC12CCC(C(=O)Nc3ccc(SC(F)F)cc3)(CC1=O)C2(C)C (configuration not stated) | -2%
CCCCc1nc2ccccc2c(NC(=O)CN(CC)CC)c1CCC | -2%
CCN1CCN(Cc2c(C)[nH]c3ccc(C(=O)OC)cc3c2=O)CC1 | -22%
COc1ccc(C2/C(=C(/O)c3ccc(OC(C)C)cc3)C(=O)C(=O)N2CCCN2CCOCC2)cc1 (configuration not stated) | -26%
COc1ccc(Cl)cc1NC(=O)C1CCCN(S(=O)(=O)c2cccc3nonc23)C1 (configuration not stated) | -18%
CCN(CC)C(=O)Cn1ncc2c1-c1ccccc1OC2 | 3%
CCc1ccccc1NC(=O)c1onc(C)c1Cl | -12%
CCOCCCNC(=O)C(c1ccccc1)N(Cc1ccc2c(c1)OCO2)C(=O)CNC(C)=O (configuration not stated) | -8%
CN(C)c1ccc(/C=N\NC(=O)c2csnn2)cc1 | -17%
O=C(Cc1ccc(Cl)cc1)Oc1cccc2cccnc12 | -18%
CSc1nc(=O)n(-c2ccccc2)c(C)c1C(C)=O | -7%
Cc1ccc(NC(=O)Nc2ncccc2C)cc1 | -21%
O=C(COc1ccccc1)N1N=C(c2cccnc2)CC1(O)C(F)(F)F (configuration not stated) | -17%
CC1CCCC(C)N1C(=O)c1cc(-c2ccc(Cl)c(Cl)c2)on1 (configuration not stated) | 18µM*
O=C(NCc1cccs1)[C@@H]1CSC2c3ccccc3C(=O)N21 (some centres not stated) | -12%
CCOc1ccc(C(=O)Nc2ccccc2C#N)cc1[N+](=O)[O-] | -10%
FC(F)(F)c1cc(NCc2cccs2)n2ncnc2n1 | -19%
COC(=O)[C@@H](NC(=O)Nc1ccc2c(c1)OCCO2)C(C)C | -21%
O=C(CCn1c(=O)oc2ccccc21)NCc1cccs1 | -4%
CCS(=O)CCSc1nc2ccccc2s1 (configuration not stated) | 16µM*
CNC(=O)c1sccc1S(=O)(=O)Cc1c(Cl)cccc1Cl | -7%
CCCc1cc(C(=O)NCc2ccco2)no1 | -5%
CCCCCCn1c(SCCN2CCOCC2)nc2c1c(=O)[nH]c(=O)n2C | -14%
C=CCn1c(=N)c(C#N)cc2c(=O)n3ccccc3nc21 | u
Cc1ccc(-c2csc(/C(C#N)=C/Nc3ccc4c(c3)OCCO4)n2)cc1 | -9%
CCOC(=O)c1c(NC(=S)NC(=O)c2cnn(CC)c2)sc2c1CCC(C)C2 (configuration not stated) | -6%
COc1ccc(NC(=O)Cc2cccs2)c(OC)c1 | -23%
O=C(Nc1nc(-c2ccc(S(=O)(=O)N3CCCCCC3)cc2)cs1)c1ccccc1 | u
C=CCN=C1CC(C)(C)CC(=O)/C1=C(/O)CCC(=O)OC | -4%
c1cnc(Oc2ccc3oc4ccccc4c3c2)nc1 | 0%
c1ccc(CCc2nn3c(Cn4cnc5ccccc54)nnc3s2)cc1 | 16µM*
Cc1ccc(CNC(=O)C(=O)NCC2OCCN2C(=O)c2cccs2)cc1 (configuration not stated) | -11%
CCOC(=O)CS(=O)(=O)c1ccc2ccccc2c1 | -7%
The results go on.
SMILES | HPGD block
CCOC(=O)CN1C(=O)C(Sc2n[nH]c(-c3ccc(C)cc3)n2)CCc2ccccc21 (configuration not stated) | -4%
CCn1c(C)c2c([n+]1CC)CC(C)(C)CC2=O | -5%
O=C(/C=C/Nc1ccccc1)c1ccc(Oc2ncccn2)cc1 | -4%
Cc1csc2nc(CNS(=O)(=O)c3ccc(-c4ccccc4)cc3)cn12 | -9%
CC1(C)C(=O)C2(CCCCC2)C(=O)OC1c1cccn1-c1ccc([N+](=O)[O-])cc1 (configuration not stated) | -7%
CCCCNC(=O)c1cc2c(=O)n3cccc(C)c3nc2n1C | u
O=C(C1CCN(S(=O)(=O)c2ccc3ccccc3c2)CC1)N1CCN(c2ncccn2)CC1 | -9%
CCCn1cnc2c(SCC(=O)O)nc(N)nc21 | -2%
COc1cc(OC)cc(-c2n[nH]c(=S)n2-c2ccc3c(c2)OCO3)c1 | 25µM*
CSc1nn(CCc2ccncc2)c(=S)s1 | u
CC(C)CN(/C=N/c1sc2c(c1C#N)CCCCC2)CC(C)C | -16%
O=C(CN1C(=O)NC2(CCc3ccccc32)C1=O)c1ccc2c(c1)OCCO2 (configuration not stated) | -10%
CCc1ccc(N(CC(=O)Nc2nc3ccc(C)cc3s2)S(=O)(=O)c2c(C)noc2C)cc1 | -17%
CC(=O)Nc1ccc(S(=O)(=O)N2CCN(C(=O)c3cccnc3)CC2)cc1 | -14%
COc1ccc(C2NC(=O)NC(C)=C2C(=O)OCc2ccc3c(c2)OCO3)cc1OC (configuration not stated) | -13%
CCOC(=O)C1CCN(C(=O)COc2ccc(Cl)cc2)CC1 | -15%
CCC1(C)CC(=O)NC1=O (configuration not stated) | -5%&-3%
COc1cccc(-n2nnc3c(=O)n(Cc4c(F)cccc4Cl)cnc32)c1 | 28µM*
COC(=O)[C@@H]1C[C@@]2(O)[C@@H](O)[C@@H](O)[C@@H](O)C[C@H]2N1Cc1ccc(Cl)cc1 | -14%
CC1CCCC(NC(=O)COC(=O)c2ccc(N(C)C)cc2)C1C (configuration not stated) | u
O=C(NC(Cc1c[nH]c2ccccc12)c1nnc2n1CCCCC2)c1cccs1 (configuration not stated) | -4%
CCc1cccc2c(C(=O)COC(=O)c3ccc([N+](=O)[O-])s3)c[nH]c12 | -12%
O=C(Nc1ccc(NC(=O)C23CC4CC(CC(C4)C2)C3)cc1)c1cc(F)c(F)cc1Cl | -2%
COc1cc(OC)c(-c2nnc(-c3ccc(OC)c(OC)c3OC)o2)cc1OC | u
COC(=O)C1=C(C)NC(=O)C1(NC(=O)c1cccnc1)C(F)(F)F (configuration not stated) | -6%
CCN1CCN(CC(=O)Nc2ccc(C)cc2C)C(=O)C1=O | -13%
OC[C@H]1O[C@@H](n2cnc3c(NCCc4ccccc4)ncnc32)[C@H](O)[C@H]1O | -3%
CNC(=O)CSCc1cnn(-c2ccccc2)c1-n1cccc1 | -14%
C=CCN(c1ccccc1)S(=O)(=O)c1cccc(C(=O)Nc2nnc(SCC)s2)c1 | -14%
CC(C)(CCC(C)(C)c1ccccc1)c1ccccc1 | -2%
Cc1ccc(OCC(=O)N2CCN(c3ccc([N+](=O)[O-])c(N4CCOCC4)c3)CC2)cc1 | -7%
CC(=O)C(Sc1ccc2nnc(-c3ccncc3)n2n1)C(C)=O | -18%
COc1ccc(CCNC(=O)CSc2nc(C)nc3c2oc2ccccc23)cc1OC | -13%
CCC(=O)Nc1ccc(Cl)c(NC(=S)NC(=O)COc2ccc(Cl)cc2)c1 | -8%
COc1ccc(NC(=O)Cn2cnc3c(cnn3-c3ccc(C)c(C)c3)c2=O)c(OC)c1 | u
Cc1oc2ccc(OCC(N)=O)cc2c1C(=O)OC(C)C | -6%
CCCCC(=O)Nc1nnc(SCC(=O)NC2CCCC2)s1 | -1%
CCCNC(=O)CCC(NS(=O)(=O)c1ccc(C)cc1)C(=O)NCCC (configuration not stated) | -2%
NC(=O)c1cn(-c2ccccc2)nc1-c1cc2ccccc2oc1=O | -23%
CCOC(=O)CNC(=O)c1sc2ncnc(N3CCc4ccccc4C3)c2c1C | u
CC(=O)Nc1cccc(NC(=O)CCCC(=O)O)c1 | -2%

Of the compounds above, these have a Cl atom.
SMILES | HPGD block
Cc1nn(C)cc1-c1n[nH]c(=S)n1-c1ccc(Cl)cc1 | -24%
CCON1C(=O)CN(C(=O)OC)C1c1ccc(Cl)cc1Cl (configuration not stated) | -8%
S=C1NC(c2ccccc2)=NCN1c1ccc(Cl)cc1 | -4%
COc1cc(C(=O)NCCC(=O)NCCc2ccc(Cl)cc2)cc(OC)c1OC | 3%
COc1ccc(NC(=O)C(C)NS(=O)(=O)c2ccc(NC(C)=O)cc2)cc1Cl (configuration not stated) | -3%
COc1ccc(Cl)cc1NC(=O)C1CCCN(S(=O)(=O)c2cccc3nonc23)C1 (configuration not stated) | -18%
CCc1ccccc1NC(=O)c1onc(C)c1Cl | -12%
O=C(Cc1ccc(Cl)cc1)Oc1cccc2cccnc12 | -18%
CC1CCCC(C)N1C(=O)c1cc(-c2ccc(Cl)c(Cl)c2)on1 (configuration not stated) | 18µM*
CNC(=O)c1sccc1S(=O)(=O)Cc1c(Cl)cccc1Cl | -7%
CCOC(=O)C1CCN(C(=O)COc2ccc(Cl)cc2)CC1 | -15%
COc1cccc(-n2nnc3c(=O)n(Cc4c(F)cccc4Cl)cnc32)c1 | 28µM*
COC(=O)[C@@H]1C[C@@]2(O)[C@@H](O)[C@@H](O)[C@@H](O)C[C@H]2N1Cc1ccc(Cl)cc1 | -14%
O=C(Nc1ccc(NC(=O)C23CC4CC(CC(C4)C2)C3)cc1)c1cc(F)c(F)cc1Cl | -2%
CCC(=O)Nc1ccc(Cl)c(NC(=S)NC(=O)COc2ccc(Cl)cc2)c1 | -8%
